Bm FixLJ act: activators of Burkholderia fixLJ two-component system, primary screen, B. multivorans, GFP reporter | z-score (concentration not given with the values) | B. multivorans fixK-promoter GFP reporter, 18 h; stronger effect = higher value | 0.3% of 29,000 active;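 active = replicate mean overnight rise in green fluorescent reporter signal, 3 or more SD over negative controls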;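 also: score is relative to vehicle wells of the plate; 300 nL library stock went into each well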
* marks the source's active call; other numbers are inactive results; & = joins results of further samples.

SMILES	Bm FixLJ act
CC(C)c1ccc(NC(=O)c2cc3c(=O)[nH]c4ccccc4c3n2C)cc1	0.33
CCCC(=O)n1nc(-c2cccnc2)nc1NCc1ccccc1	-2.1
COc1cccc2c1C1(CCN(C(=O)CCNC(=O)c3ccc(F)cc3)CC1)OCC2	-1.5
Cc1c2cnn(-c3ccccc3)c(=O)c2c(C)n1CC(=O)NCc1ccccc1Br	0.25
Cc1ccc2c(c1)c(=O)c1ccccc1n2CCCC(=O)Nc1ccc(C)c(C)c1	-0.19
COC(=O)c1cc2sc(Cl)cc2n1CC(=O)Nc1cc(OC)cc(OC)c1	-0.41
COc1cccc(C(=O)NC(Cn2ccnc2)c2ccccc2)c1OC (stereo not drawn)	-0.6
Cc1ccc(CNC(=O)Cn2c(=O)n(Cc3ccccc3)c(=O)c3sc4ccccc4c32)cc1	-1.3
Cc1[nH]c(-c2ccccc2)nc1C(=O)N(C)Cc1ccc2nonc2c1	-1.9
COc1ccc(-c2cc(C(=O)Oc3cccc(C)c3)c3cc(C)ccc3n2)cc1	1.3
O=c1oc2ccccc2cc1-c1cn2cc(Cc3ccc(Br)cc3)sc2n1	-1.1
COc1ccc(NC(=O)Cn2c(=O)n(CCc3ccccc3)c(=O)c3c4c(sc32)CCCC4)cc1	-3.4
COc1cc(/C=C(\C#N)c2nc3ccccc3n2C)cc(OC)c1OC	-2.5
CN(C)c1ccc(/C=C(\C#N)c2nc3ccccc3c(=O)[nH]2)cc1	-3.9
CCc1cccc(NC(=O)CCS(=O)(=O)c2cc(Br)cc3c2N(C(C)=O)CC3)c1	1.3
CCN(Cc1ccccc1)C(=O)CN1C(=O)CSc2ccc(S(=O)(=O)N(CC)CC)cc21	0.71
Cc1ccc(S(=O)(=O)c2c(O)cc(C)c(NS(=O)(=O)c3ccc(Br)cc3)c2C)cc1	-1.2
COc1ccc(NC(=O)CN(c2cccc(C)c2C)S(=O)(=O)c2ccccc2)cc1OC	-3
COc1ccc(CCN(C)Cc2nnc(C3CC(N)C3)n2C)cc1OC (stereo not drawn)	-0.79
NC(=O)C1CC=CCC1NC(=O)CSc1nnc(N)s1 (stereo not drawn)	-0.48
Cc1ccc2nc(Nc3cccc(Cl)c3C)c(-n3nc(C)cc3C)nc2c1	0.62
Cc1cccn2c(CC(=O)NCc3cc(-c4ccco4)on3)cnc12	-1.1
CCc1ccc(NC(=O)Cn2cc(S(=O)(=O)c3ccc(F)cc3)c(=O)c3cc(OC)ccc32)cc1	-3.8
O=C(CN(c1ccc(Cl)c(C(F)(F)F)c1)S(=O)(=O)c1ccccc1)N1CCc2ccccc2C1	0.66
CC(C)COC(=O)Cn1nnc2sc(-c3ccccc3)cc2c1=O	0.09
The results go on:
SMILES	Bm FixLJ act
COc1ccc(C(CN(C)C)C2(O)CCCCC2)cc1 (stereo not drawn)	-1.2&-3.4
Cc1c2cnn(-c3ccccc3)c(=O)c2c(C)n1C(C)C(=O)Nc1ccccc1C(F)(F)F (stereo not drawn)	-0.85
Cc1ccc(-c2cc(C(=O)N3CCCC(O)(CO)CC3)n[nH]2)o1 (stereo not drawn)	-3.5
CCCCOc1cccc(C(=O)Nc2cc3nn(-c4ccc(F)cc4)nc3cc2C)c1	-1.7
COCCN1C(=O)c2oc3cc(C)cc(C)c3c(=O)c2C1c1cccc(O)c1 (stereo not drawn)	-0.7
CC(=O)N1c2ccc(S(=O)(=O)N3CCN(c4cccc(Cl)c4)CC3)cc2CC1C (stereo not drawn)	0.87
O=C(C1CCc2sc(-c3ccncc3)nc2C1)N1CCOC2(CCNCC2)C1 (stereo not drawn)	-1.1
Cc1ccc(C)c(NC(=O)CCn2cc(-c3sccc3C)nn2)c1	-0.22
COc1ccc(C(=O)N2c3ccc(C)cc3C(C)(c3ccccc3)CC2(C)C)cc1 (stereo not drawn)	-0.58
Cc1ccc(NC(=O)CC2Oc3ccc(C)cc3NC2=O)c(C)c1 (stereo not drawn)	-2.7
CCc1nn(CC(=O)NCCN(CC(C)C)CC(C)C)c(=O)c2cc3sc(C)cc3n12	-0.3
COc1cccc2c1cc1c(=O)n(CC(=O)N3CCC(C)CC3)nc(C)n12	-1.3
O=C(O)c1ccc(-c2nccn2CCCn2nccc2C2CC2)cc1	-1.2
COCCCn1c(=N)c(C(=O)NCC2CCCO2)cc2c(=O)n3cc(C)ccc3nc21 (stereo not drawn)	-0.51
CCOc1ccc(CCNC(=O)c2ccc(CS(=O)(=O)c3ccccc3C)o2)cc1OCC	-1.7
CCN(CC)CCCNC(=O)c1ccc2c(Cl)c3c(nc2c1)CCCC3	-1.4
CN(C)C(CNC(=O)c1ccc(C#CC(C)(C)O)o1)c1ccco1 (stereo not drawn)	-0.2
CCc1nnc2c(NCCc3ccc(OC)c(OC)c3)nc3ccccc3n12	0.45
CCOC(=O)C1CCCN(S(=O)(=O)c2ccc3[nH]c(=O)oc3c2)C1 (stereo not drawn)	0.37
Cc1ccc(-c2cc(C(=O)Oc3ccccc3)c3cc(C)ccc3n2)cc1	-0.76
Cc1ccc(Nc2sc(C(=O)c3ccccc3)c(N)c2S(=O)(=O)c2ccccc2)c(C)c1	-0.49
Cc1cccc(C)c1NC(=O)N1CCC(C(N)=O)(N2CCCCC2)CC1	-1.7
COc1ccc(CN(C(=O)c2cc(=O)c3ccccc3o2)C2CCS(=O)(=O)C2)cc1OC (stereo not drawn)	0.42
CC(=O)Nc1ccc(NC(=O)CSc2nc3ccccc3nc2N2CCOCC2)cc1	-0.7
CCCCC1=NC2(CCCC2)C(=O)N1Cc1ccc(-c2ccccc2-c2nn[nH]n2)cc1	-0.03
The list goes on.
SMILES	Bm FixLJ act
CCN(CCO)C(=O)c1cc2c(s1)CCOC21CCN(C)CC1	0.43
N#Cc1cccc(NC(=O)N2CC3CCC(C2)N(CC2CC2)C3=O)c1 (stereo not drawn)	-0.1
COc1ccccc1C(=O)N1CCN(Cc2cc(=O)oc3cc(C)ccc23)CC1	-0.2
COc1ccc2c(c1)cc(C(=O)N1CC(O)C(Cc3cc(C)no3)C1)n2C (stereo not drawn)	0.53
COc1cc(/C=C(\C#N)C(=O)Nc2ccc(C)cc2)ccc1OCc1cc(=O)n2nc(C)sc2n1	-0.69
CCOc1ccc2oc(=O)cc(CN3CCN(c4cc(C)ccc4C)CC3)c2c1	-3.3
COC(=O)c1c(NC(=O)c2cc(=O)c3c(C)cc(C)cc3o2)sc2c1CCCC2	-1.1
Cn1cc(C(=O)N2CC3CCC(C2)N(Cc2cscn2)C3=O)cn1 (stereo not drawn)	-0.38
CSc1ccc(C2c3c(oc4ccc(F)cc4c3=O)C(=O)N2c2ccc(C)cn2)cc1 (stereo not drawn)	-0.92
COc1cc(-c2nc(Cn3nnc(C(=O)Nc4cccc(Cl)c4)c3C)c(C)o2)cc(OC)c1OC	-0.45
CC1=C(C(=O)OCc2ccc(C)cc2)C(c2cccc(F)c2F)CC(=O)N1 (stereo not drawn)	-0.15
CC1(C)SCC(C(=O)N2CCC3(CC2)Nc2ccccc2NC3=O)NC1=O (stereo not drawn)	-0.49
Cc1ccc(NC(=O)CSc2nc3ccccc3nc2Cc2ccccc2F)cc1F	0.37
Cc1ccc(NC(=O)c2cnc3sc(N4CCOCC4)nn3c2=O)cc1N(C)C	-0.69
COc1ccc(CCNC(=O)CCn2c(=O)c3ccccc3n(CC(=O)Nc3cccc(C)c3)c2=O)cc1OC	-0.66
O=C(CCC(F)(F)F)NC1CCN(C(=O)c2ccccc2)CC1O (stereo not drawn)	0.07
COc1ccc(Nc2oc(/C=C/c3cc(OC)c(OC)c(OC)c3)nc2C#N)cc1	-1.2
CCn1cnnc1CN1CCC(CNC(=O)C2CCc3ccccc32)CC1 (stereo not drawn)	-1.4
COc1ccc(N(CC(=O)N2CCN(c3ccccc3F)CC2)S(=O)(=O)c2c(C)noc2C)cc1	-0.7
Cc1ccc(C(=O)N(Cc2ccco2)Cc2ccco2)cc1	-0.04
COc1ccc(-c2nn(C)c3sc(C(=O)N4CCN(c5cccc(Cl)c5)CC4)cc23)cc1OC	0.8
CCOC(=O)N1CCN(CCC(=O)Nc2cccc(F)c2)CC1	-0.22
CC(=O)c1ccc(NC(=O)C2CCC(CNS(=O)(=O)c3cccs3)CC2)cc1 (stereo not drawn)	0.41
Cc1ccc(CNC(=O)Cc2c(C)c3cc4c(C)coc4cc3oc2=O)cc1	-2.2
COc1ccc(C(=O)c2cn(Cc3cccc(C)c3)c3cc4c(cc3c2=O)OCO4)cc1	-0.18
Next part
SMILES	Bm FixLJ act
CCCCOc1ccc(Cn2c(=O)oc3ccc(C)cc32)cc1OC	-1.1
CC(C(N)=O)N1CCC=C(CN(C)C(=O)C=Cc2ccccc2)C1 (stereo not drawn)	-1.2
Cc1cc(C)cc(OCC(=O)Nc2ccc(Cl)c(-c3nc4ncccc4o3)c2)c1	-0.46
COc1ccc(NC(=O)CNC(=O)Cn2ccc3ccccc3c2=O)c(OC)c1	-2.1
CCc1cc(NC(CC(C)C)C(N)=O)n2nc(C)c(C)c2n1 (stereo not drawn)	-1.5
COC(=O)c1ccc(NC(=O)C2CCN(C(=O)c3ccc(F)cc3)CC2)cc1	-1.6
CC1(C)O[C@@H]2CC3C4CCC5=CC(=O)C=C[C@]5(C)[C@@]4(F)[C@@H](O)C[C@]3(C)[C@]2(C(=O)CO)O1 (stereo partly drawn)	1
N#Cc1c(-n2ncnc2-c2ccccc2Cl)sc2c1CCCCC2	-0.08
Cc1ccc(CN(Cc2cccn2-c2nnc(N3CCCC3=O)s2)C(=O)Nc2cc(C)cc(C)c2)cc1	0.62
CCOC(=O)C1=C(CS(=O)(=O)c2ccc(Br)cc2)NC(=O)NC1c1ccccc1 (stereo not drawn)	-0.4
COC(=O)c1c(NC(=O)c2ccccc2C(=O)O)sc2c1CCCC2	-0.98
Cc1cccc(NC(=O)CSc2cc(C)c3ccccc3n2)c1	-0.91
COc1ccc(CCNC(=O)CCCCn2c(=O)c3ccccc3n(Cc3ccccc3Cl)c2=O)cc1OC	-3
CC(C)c1ccc(-c2cccc(C(=O)NCCc3nnc(N)s3)c2)nn1	-0.23
Cc1ccc(-n2nc(CO)c(C(=O)NC(C)CCCc3ccccc3)n2)cc1C (stereo not drawn)	1.4
COc1cccc(CNC(=O)CCc2c(C)c3cc4c(C)c(C)oc4cc3oc2=O)c1	-0.43
Cc1ccc(-n2nc3c(=O)n(CC(=O)Nc4ccccc4F)nc(C)c3c2C)c(C)c1	-1.5
Nc1nc(C2CC(NC(=O)c3cnc(Nc4ccccc4)nc3)C2)cc(=O)[nH]1 (stereo not drawn)	-0.53
CCCCC[C@H](O)/C=C/[C@H]1[C@H](O)CC(=O)[C@@H]1CCCCCCC(=O)O	-1.1
Cc1cc(C)cc(OCCN(C)c2cc(C3CC(O)C3)ncn2)c1 (stereo not drawn)	-1.7
COCC1(C(=O)N2CCC[C@]3(C2)CN(C2CCOCC2)CCC3O)CCC1 (stereo partly drawn)	-0.41
O=C(c1csc(Cc2ccccc2)n1)N1CCC(Cn2cccn2)CC1	0.91
Cc1nn(C(=O)c2ccc(Cl)cc2)c(C)c1Sc1ccc(Cl)cc1	1.2
CCCCOc1cccc(C(=O)N(Cc2ccc(N(C)C)cc2)C2CCS(=O)(=O)C2)c1 (stereo not drawn)	-3.8
Cc1ccc(-c2nnc(Nc3ccc(OCC(N)=O)cc3)c3ccccc23)cc1S(=O)(=O)NCC1CCCO1 (stereo not drawn)	-0.37
Continuation.
SMILES	Bm FixLJ act
COc1ccc(Cl)cc1NC(=O)Cn1nnc2sc3c(c2c1=O)CCC(C(C)(C)C)C3 (stereo not drawn)	-0.62
COc1ccc(OC)c(CCNC(=O)CCCc2nnc3n(C)c(=O)c4sccc4n23)c1	0.57
Cc1cc(CC2COCC2NC(=O)c2csc(-c3cccs3)n2)on1 (stereo not drawn)	-1.2
O=C(Nc1cnn(Cc2ccc(Cl)cc2Cl)c1)c1noc2c1CCc1ccccc1-2	1
Cc1ccc(C(=O)N2c3ccc(C)cc3C(C)(c3ccccc3)CC2(C)C)cc1 (stereo not drawn)	-1.3
Cc1ccc(-c2ncc(Cl)cc2-c2ccc(S(C)(=O)=O)cc2)cn1	0.3
CCC(=O)N1CCc2[nH]cnc2C12CCN(c1ncc(C)c(N(C)C)n1)CC2	-0.52
NC(=O)C1CC=CCC1NC(=O)c1n[nH]c(=O)c2ccccc12 (stereo not drawn)	-0.01
Cc1cc(C)c2oc(C(=O)Nc3c(C(=O)Nc4ccccc4)oc4ccccc34)cc(=O)c2c1	-1.1
Cc1cccc(C(=O)Nc2c(-c3ccc(F)cc3)nc3ccccn23)c1	-0.11
O=C(O)CCn1ccc2cc(S(=O)(=O)N3CCCCC3)ccc21	0.02

Only part of the results is shown; the hit share may differ from the screen's.
